# Cruzain inh Det – inhibitors of Trypanosoma cruzi cruzain with detergent; Potency, µM, inactives show max response, negative = inhibition, usual class: inhibitors; P25779; actives 0.43% (n = 200,000); purified cruzain, Z-FR-AMC fluorescence, 0.01% Triton;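 note: plate controls were neutral wells for no effect and buffer without enzyme for full effect; nearly all actives have a fitted effect of over 40% in size; top concentration of the series not given in the record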
# Target sequence (P25779 123-467 limits assumed): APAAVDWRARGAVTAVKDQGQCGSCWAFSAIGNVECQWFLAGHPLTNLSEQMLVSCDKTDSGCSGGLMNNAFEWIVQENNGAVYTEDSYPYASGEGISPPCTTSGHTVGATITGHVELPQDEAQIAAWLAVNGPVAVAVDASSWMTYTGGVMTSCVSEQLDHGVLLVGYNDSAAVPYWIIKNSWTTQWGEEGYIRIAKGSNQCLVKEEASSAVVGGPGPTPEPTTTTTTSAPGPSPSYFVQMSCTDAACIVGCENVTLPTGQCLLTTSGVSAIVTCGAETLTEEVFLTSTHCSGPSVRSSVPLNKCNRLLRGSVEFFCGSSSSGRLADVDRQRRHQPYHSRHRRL
#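 Steps: dispense cruzain (1.5 nM final) in acetate buffer pH 5.5 with DTT and 0.01% Triton X-100; pin-transfer compounds; incubate 15 min RT; add Z-FR-AMC (2 uM final); read fluorescence every 30 s, using the 60 s intensity change.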
# SARS PLpro yeast – blocks SARS-CoV papain-like protease in a yeast assay; S. cerevisiae expressing SARS-CoV PLpro, growth rescue; control for the full effect not named in the record; Potency, µM (top dose mostly 32.9 µM), without a hit: top-dose activity, positive = growth rescue; actives 0.19% (n = 330,000); active means well fitted rising curve with a large enough effect; inconclusive means small, poorly fitted or top-dose-only effect; inactive means no such curve, though single readings can be large or run the other way; note: 0% is about no effect; nearly all actives have a fitted effect of over 55% in size; growth read by luminescence after 48 h
# RE007 growth inh – less growth of the S. pombe RE007 Vpr strain | Potency, µM (series often up to 92.2 µM), for the others: top-dose activity change, negative = less growth | S. pombe RE007 Vpr strain, BacTiter-Glo ATP luminescence, 24 h; control for the full effect not named in the record | actives 0.21% (n = 360,000) | AID 651644; active = well fitted falling curve with a large enough effect; inconclusive = small, poorly fitted or top-dose-only effect; inactive = no such curve, though single readings can be large or run the other way;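 note: % is set by controls: 0 for no effect and ±100 for the full control effect; nearly all actives have a fitted effect of over 50% in size; the assay follows cell death caused by Vpr and the record does not say whether a fall means rescue or toxicity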
#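 Fission yeast RE007 carrying one integrated HIV-1 vpr copy, seeded at OD 0.01 in PMG+AL medium with 23 nL pinned compound. Grown 24 h at 30 degrees; viability read by BacTiter-Glo luminescence after 5 min.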
# Lassa entry inh – blocks Lassa virus binding to or entry into cells | AID 540256 | Potency, µM (doses to about 37.9 µM), without a hit: top-dose activity change, negative = inhibition, most hits filed as inhibitors | Lassa virus pseudotype entry inhibition, cell reporter; control for the full effect not named in the record | actives 1.2% (n = 300,000); active means well fitted inhibition curve with a large enough effect; inconclusive means small, poorly fitted or top-dose-only effect, or effect the other way; inactive means flat fitted curve, though single readings scatter; tested in HEK293 cells; note: % is set by controls: 0 for no effect and ±100 for the full control effect; nearly all actives have a fitted effect of over 50% in size; luciferase read-out
# 2A StopGo – FMDV 2A StopGo reporter, luciferase signal; human cells with a luciferase reporter of 2A StopGo recoding; control for the full effect not named in the record; Potency, µM (series often up to 57.9 µM), for inactives: at the top dose signal change, negative = less light; actives 1.2% (n = 410,000); AID 1159524; active = well fitted falling curve with a large enough effect; inconclusive = small, poorly fitted or top-dose-only effect; inactive = no such curve, though single readings can be large or run the other way; tested in HEK293T cells; note: % is set by controls: 0 for no effect and ±100 for the full control effect; nearly all actives have a fitted effect of over 45% in size; luciferase light after 4 h
# NS1 function inh – inhibitors of influenza NS1 protein function; S. cerevisiae slowed by influenza A NS1, growth recovery by OD600; Potency, µM (titrated, usually from 46.1 µM), inactives show at the top dose activity, positive = more growth; actives 0.4% (n = 270,000); active means well fitted rising curve with a large enough effect; inconclusive means small, poorly fitted or top-dose-only effect; inactive means no such curve, though single readings can be large or run the other way; note: nearly all actives have a fitted effect of over 50% in size
#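 In this qHTS, NS1 from influenza A is expressed in budding yeast, where it slows growth. Cells are switched from glucose to 2% galactose medium (pH 6.0, -URA), treated with compound, and growth recovery is read at OD600.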
# Cruzain inh noDet – blocks cruzain activity in detergent-free assay; P25779; actives 2.3% (n = 200,000); Potency, µM, for inactives: max response, negative = inhibition, hits mostly inhibitors; purified cruzain, Z-FR-AMC fluorescence, no detergent;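 note: plate controls were enzyme without inhibitor for no effect and buffer without enzyme for full effect; nearly all actives have a fitted effect of over 40% in size; top concentration of the series not given in the record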
#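 Purified cruzain at 1.5 nM, pre-incubated 15 min with compound at room temperature in 100 mM sodium acetate pH 5.5, 5 mM DTT, 0.00005% Triton X-100. Reaction started with 2 uM Z-FR-AMC; AMC fluorescence increase over 60 s gives rate.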
# Marburg entry inh – inhibitors of Marburg virus binding or cell entry. AID 540276. Marburg virus pseudotyped entry inhibition, cell reporter; control for the full effect not named in the record; about a third of the inactives were read at about 46 µM. Potency, µM (series often up to 37.8 µM), without a hit: top-dose activity change, negative = inhibition, hits mostly inhibitors. actives 1.8% (n = 300,000); active = well fitted inhibition curve with a large enough effect; inconclusive = small, poorly fitted or top-dose-only effect, or effect the other way; inactive = flat fitted curve, though single readings scatter; tested in HEK293 cells; about a fifth of its hits are not listed in these tables; note: % is set by controls: 0 for no effect and ±100 for the full control effect; luciferase read-out
# Active calls of the source: *; ? = inconclusive; . = not tested or not shown; & = joins results of further samples; [ ] = remark or other dose. Unless noted, calls come from the whole dose curve; as a rule, active = well fitted curve in the direction sought with a large enough effect; inconclusive = small, poorly fitted or top-dose-only effect, or another doubt; inactive = no such curve, though single readings can be large; an effect the other way counts as inactive or inconclusive. Potency is the fitted concentration of half-maximal effect.
Compound,Lassa entry inh,Marburg entry inh,Cruzain inh Det,NS1 function inh,Cruzain inh noDet,RE007 growth inh,2A StopGo,SARS PLpro yeast
Cc1ccc(CN2C(=O)CCC2C(=O)NCCN(CC(C)C)CC(C)C)cc1 (stereo not given),-19%,?,3.1%,-22%,-7%,1%,0%,3%
Cc1nc(-c2ccccc2)sc1C(=O)CSc1ccc(Br)cc1,12%,3%,-6.4%,6%,-6%,-5%,-21%,1%
Fc1ccc2c(c1)c1n[nH]c(=S)nc1n2CCc1ccccc1,.,.,.,8%,.,15%,-6%,4%
O=C(CN1CCN(c2ccc(O)cc2)CC1)Nc1cc(S(=O)(=O)N2CCOCC2)ccc1Cl,1%,?,-2.6%,22%,-7%,-2%,?,-7%
Cc1cccc(-c2n[nH]c(=S)n2-c2ccccc2)c1[N+](=O)[O-],8%,-5%,-1.5%,18%,2%,-11%,17%,-20%
COc1ccc(CNc2nc(-c3ccc(OC)cc3)cc(C(F)(F)F)n2)cc1,-4%[46.1 µM],?,-8.7%,.,?,.,-20%,.
COc1ccc(C(=O)c2cn(CC(=O)Nc3ccc4c(c3)OCCO4)c3ccc(OC)cc3c2=O)cc1,-9%[46.1 µM],-6%[46.1 µM],-4.2%,.,12%,.,-16%,.
Cc1c(/C=N\NC(=O)C2(C)CC2(Cl)Cl)cnn1C (stereo not given),-1%,?,0.9%,2%,12%,0%,-2%,-7%
CCc1ccc(NC(=O)N(Cc2ccco2)C(C)c2cccs2)cc1 (stereo not given),?,?,2.2%,-91%,1%,-3%,18%,-18%
NC(=O)c1cc(S(=O)(=O)NCCc2ccccc2)cs1,.,.,.,-8%,.,-16%,24%,-1%
CCCCCOc1ccc(C(=O)CCC(=O)Nc2ccc(NC(C)=O)cc2)cc1,.,.,.,1%,.,-5%,-4%,-2%
COc1cc(/C=N/NC(N)=O)ccc1OC(=O)c1cccs1,8%[46.1 µM],21%[46.1 µM],.,1%,.,1%,-9%,0%
COc1cccc(N/C=C/C(=O)c2ccc(OC)c(OC)c2)c1,.,.,.,-59%,.,-21%,38%[activator],-11%
Fc1cccc(NCc2cccn2-c2nnc(N3CCOCC3)s2)c1,-13%[46.1 µM],.,-4.3%,.,-4%,.,-17%,.
COc1ccc(NC(=O)CCc2ccccc2)cc1NC(=O)c1ccco1,-16%[14.3 µM],-2%,1.2%,-26%,-6%,13%,-2%,-1%
CNS(=O)(=O)c1cccc(C(=O)OCC(=O)NC(C)CCc2ccccc2)c1 (stereo not given),.,.,.,-1%,.,15%,-3%,-4%
COc1ccc(NC(=O)Nc2cc(C(=O)O)ccc2N2CC3CC(C2)c2cccc(=O)n2C3)c(OC)c1 (stereo not given),-3%[46.1 µM],4%[46.1 µM],.,?,.,2%,-14%,-5%
Cc1cccc(NC(=O)C(=O)N/N=C/c2ccncc2)c1,-19%[46.1 µM],?,.,.,.,13%,48%[activator],-2%
Cc1nn(C)c(C)c1CN(C)S(=O)(=O)c1ccc2ccccc2c1,?,?,-2.6%,8%,?,5%,-1%,29%
CCOc1nc(Nc2ccc([N+](=O)[O-])cc2)nc(NC(C)(C)C)n1,?,?,-8.2%,16%,14%,3%,-9%,5%
Cc1cc(C(=O)N/N=C2\CC(=O)c3ccccc32)c(C)n1-c1ccccc1,.,?,.,7%,.,-16%,-4%,-2%
NC(=O)C1=C[C@H](c2coc3ccccc3c2=O)C[C@H](OCCCCO)O1,.,.,.,5%,.,1%,-18%,-1%
COc1ccccc1N1CCN(C(=O)c2cnn(-c3ccc(F)cc3F)c2C2CCNCC2)CC1,9%[46.1 µM],.,-1.0%,.,-4%,.,-6%,.
O=C1c2ccccc2C(=O)N1Nc1ccccc1,-19%,?,-0.1%,-30%,-14%,146%,0%,-1%
COC(=O)C1CCN(C(=O)CSc2ccccc2)CC1,0%,1%,-2.7%,1%,-5%,3%,14%,7%
O=C(N/N=C/c1ccc(Sc2ccccn2)o1)c1cc2ccccc2cc1O,4%,8%,-6.2%,?,1%,-14%,34%[activator],-14%
COc1ccc(CCNC(=O)COC(=O)c2ccco2)cc1OC,13%,13%,1.3%,0%,5%,-6%,3%,2%
CCOC(=O)c1c(NC(=O)c2cc(=O)c3c(C)cc(C)cc3o2)sc(C(C)=O)c1C,?,23%[46.1 µM],-1.7%,.,-4%,.,-18%,.
COCCCNC(=S)Nc1c(C)cc(C)cc1C,5%,-2%[46.1 µM],.,0%,.,-18%,-9%,1%
O=C(COc1c(F)c(F)cc(F)c1F)NC(=O)NC1CCCC1,9%,4%,-4.3%,-13%,-5%,6%,56%[activator],0%
COc1ccc(S(=O)(=O)N2CCCCCC2)cc1C(=O)N(CC(C)C)C1CCS(=O)(=O)C1 (stereo not given),?,-10%[46.1 µM],.,.,.,-7%,-14%,5%
CC(Sc1cnc2ccccc2n1)C(=O)O (stereo not given),-4%,11%,-3.4%,-2%,3%,22%,-3%,10%
O=C(CN1CCCc2ccccc21)NCCc1ccc(F)cc1,-8%,14%[46.1 µM],.,.,.,0%,-8%,-5%
Cc1ccc(S(=O)(=O)NCC(=O)N(CC(=O)NCC2CCCO2)Cc2ccco2)cc1 (stereo not given),-4%[46.1 µM],-28%[46.1 µM],.,4%,.,7%,12%,1%
Cc1ccc(N(C(=O)CNC(=O)c2ccco2)C(C(=O)NC2CCCCC2)c2ccncc2)cc1F (stereo not given),?,11%,.,9%,.,-13%,-2%,0%
COc1cc(OC)cc(C(=O)NC(c2ccccc2)c2ccccc2)c1,.,.,.,9%,.,3%,-13%,?
CCOc1ccc(-c2nnc(SCC(=O)NCCc3ccccc3)nc2-c2ccc(OCC)c(OC)c2)cc1OC,-22%[46.1 µM],.,1.5%,.,10%,.,-2%,.
CSc1nnc(-c2ccc([N+](=O)[O-])cc2)o1,?,-1%[46.1 µM],.,-1%,.,5%,6%,-1%
COc1ccccc1N=c1scc(-c2ccc3c(c2)NC(=O)CO3)n1CC1CCCO1 (stereo not given),?,?,-0.7%,-34%,1%,-16%,35µM*,2%
O=C(NCCc1ccccc1F)C1CCC(=O)N(Cc2ccccc2F)C1 (stereo not given),.,.,.,8%,.,-12%,3%,-3%
c1ccc2sc(Sc3ncnc4sccc34)nc2c1,1%,?,0.3%,-25%,10%,-9%,1%,3%
Cc1ccc2[nH]cc(C(=O)CN3CCN(c4ccccc4F)CC3)c2c1,-7%,-14%,-1.4%,0%,-9%,-11%,-5%,5%
COc1ccc(N(CC(=O)Nc2cc(C)ccc2C)S(=O)(=O)c2ccccc2[N+](=O)[O-])c(OC)c1,?,?,.,15%,.,1%,-3%,-2%
COc1ccc(CCNC(=O)c2cc(CC(C)C)on2)cc1OC,.,.,-0.6%,-135%,-4%,-13%,-12%,-9%
O=C(NCc1cccnc1)c1cc2ccccc2oc1=O,10%,21%&21%,-1.4%,-10%,1%,3%,6%,-2%
COc1ccc(-c2csc3nc(C)nc(N4CCC(C)CC4)c23)cc1OC,-24%,?,.,.,.,-1%,?,2%
Cc1cc(C)c(NC(=O)C2c3ccccc3Oc3ccccc32)c(C)c1,10%,-1%,4.4%,2%,13µM*,-3%,-5%,?
Cc1ccc(SCCC(=O)OCC(=O)Nc2ncc(Cl)cc2Cl)cc1,0%,11%,25µM*,-6%,?,0%,3%,2%
Cn1nc(C(=O)N2CCN(c3ccc(Cl)cc3)CC2)c2c1-c1ccccc1SC2,13%[46.1 µM],3%[46.1 µM],-4.1%,.,-3%,.,-25%,.
O=C(CN1CCCCCC1)N/N=C/c1ccc(Cl)c(Cl)c1,14%,1%,-7.6%,0%,-12%,-1%,7%,27%
CCn1ncc(NC(=O)Nc2cccc(C(F)(F)F)c2)c1C(N)=O,5%,?,3.0%,1%,11%,-21%,5%,.

# Results in NS1 function inh and Cruzain inh Det, for some of the entries so far:
smiles	NS1 function inh	Cruzain inh Det
O=C1c2ccccc2C(=O)N1Nc1ccccc1	-30%	-0.1%
COC(=O)C1CCN(C(=O)CSc2ccccc2)CC1	1%	-2.7%
O=C(N/N=C/c1ccc(Sc2ccccn2)o1)c1cc2ccccc2cc1O	?	-6.2%
COc1ccc(CCNC(=O)COC(=O)c2ccco2)cc1OC	0%	1.3%
CCOC(=O)c1c(NC(=O)c2cc(=O)c3c(C)cc(C)cc3o2)sc(C(C)=O)c1C	.	-1.7%
COCCCNC(=S)Nc1c(C)cc(C)cc1C	0%	.
O=C(COc1c(F)c(F)cc(F)c1F)NC(=O)NC1CCCC1	-13%	-4.3%

# 4 entries out of the list, arranged by molecular weight, largest number first:
Compound,Lassa entry inh,Marburg entry inh,Cruzain inh Det,NS1 function inh,Cruzain inh noDet,RE007 growth inh,2A StopGo,SARS PLpro yeast
CCOc1ccc(-c2nnc(SCC(=O)NCCc3ccccc3)nc2-c2ccc(OCC)c(OC)c2)cc1OC,-22%[46.1 µM],.,1.5%,.,10%,.,-2%,.
COc1ccc(S(=O)(=O)N2CCCCCC2)cc1C(=O)N(CC(C)C)C1CCS(=O)(=O)C1 (stereo not given),?,-10%[46.1 µM],.,.,.,-7%,-14%,5%
O=C(N/N=C/c1ccc(Sc2ccccn2)o1)c1cc2ccccc2cc1O,4%,8%,-6.2%,?,1%,-14%,34%[activator],-14%
O=C(COc1c(F)c(F)cc(F)c1F)NC(=O)NC1CCCC1,9%,4%,-4.3%,-13%,-5%,6%,56%[activator],0%

# Screening data deposited in PubChem BioAssay by National Center for Advancing Translational Sciences (NCATS).
